# Screening results (PubChem BioAssay)
# GIV Gai3 FP = blocks GIV peptide binding to rat Galpha-i3 | P08753 | Galpha-i3/FITC-GIV peptide fluorescence polarization, 90 min; stronger effect = lower value; scaled: aluminum fluoride 0%, vehicle 100% | percent of control (FP), % (test concentration not listed) | hit rate 0.42% among 210,000 | AID 1224905;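 active = replicate mean at 85% of control or lower, very high polarization wells dropped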;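 note: wells of about 15 µL received 100 nL stock; the first replicate is given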
# Target sequence (P08753 whole entry, looked up): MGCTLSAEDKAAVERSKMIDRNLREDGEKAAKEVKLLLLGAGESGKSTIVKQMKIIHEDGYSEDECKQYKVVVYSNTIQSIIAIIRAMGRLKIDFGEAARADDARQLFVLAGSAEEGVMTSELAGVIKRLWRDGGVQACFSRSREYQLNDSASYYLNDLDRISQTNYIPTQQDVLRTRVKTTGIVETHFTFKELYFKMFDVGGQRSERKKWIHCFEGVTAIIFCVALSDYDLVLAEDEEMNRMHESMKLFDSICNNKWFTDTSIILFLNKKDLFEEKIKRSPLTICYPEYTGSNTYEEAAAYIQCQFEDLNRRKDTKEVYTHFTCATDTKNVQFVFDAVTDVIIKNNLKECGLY
# HCMV NEC inh = cytomegalovirus nuclear egress complex inhibition; hit rate 0.15% among 190,000; inhibition, % (concentration not given with the values); AID 1918969; HTRF UL50-UL53 interaction, normalized percent inhibition;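 active = both replicates at 50% or more, plus weaker picks with an unusually low signal ratio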;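 note: stock transfer was 100 nL into about 20 µL; 0% = negative control wells and 100% = wells with untagged competitor protein; inactives centre near -12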
# Sa growth inh = inhibitors of Staphylococcus aureus growth at 42 °C; S. aureus RN4220 growth, OD600, 20 h; stronger effect = lower value; relative growth, % (concentration not given with the values); hit rate 0.53% among 170,000; AID 720641;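 active = growth at 42 °C up to 50% and 20 or more points under that at 30 °C, or under 10% at both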;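 note: 300 nL library stock went into each well; scaled to the means of positive and negative controls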
# Sa growth inh second temp = recorded beside Sa growth inh, whose call it bears; relative growth, %; measured here: growth at 30 °C;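 optical density after 20 h as mean of two plates; 100% = untreated growth and lower means inhibition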
# * marks the source's active call; other numbers are inactive results; nt = no result given; & = joins results of further samples.
# Fields: GIV Gai3 FP	HCMV NEC inh	Sa growth inh	Sa growth inh second temp
- CC(=O)Nc1ccccc1-c1nc2ccccc2n(CC(=O)Nc2cccc(C(F)(F)F)c2)c1=O
→ 100	2	80	79
- CCc1ccc2oc(-c3ccc(NC(=O)c4cc5ccccc5o4)cc3)nc2c1
→ 107	-9	91	79
- O=C(Cc1cccc2ccccc12)Nc1ccc(I)cc1
→ 98	-38	95	87
- CCc1ccc(NC(=O)c2sc3nc(C)cc(C)c3c2NC(=O)c2ccccc2)cc1
→ 104	-29	101	87
- CCN(C(=O)Cn1c(=O)oc2cc(S(=O)(=O)N3CCCCC3)ccc21)c1ccccc1
→ 102	-22	107	89
- O=C(OCc1ccc(Br)cc1)c1ccc(Br)o1
→ nt	5	95	89
- COc1ccc(OC)c(NC(=O)CCN2CCN(c3ccccc3F)CC2)c1
→ 98	-2	94	96
- O=C(Nc1ccccc1-c1nc2ccccc2s1)c1cccc2ccccc12
→ 98	-12	nt	nt
- O=C(CCc1nc2cccnc2n1-c1ccccc1)NCc1ccccc1
→ 106	nt	99	84
- Cn1cc(C=C2C(=O)CC(C)(C)CC2=O)c2ccccc21
→ nt	11	80	81
- O=c1[nH]cnc2c1nnn2Cc1ccc(F)cc1
→ nt	-10	114	85
- CCOC(=O)c1ccccc1NC(=O)c1sc2ccccc2c1Cl
→ 104	-32	102	87
- COc1cc(C2C3=C(CC(C)(C)CC3=O)Nc3ccccc3N2C(C)=O)ccc1OCc1ccccc1 (stereo unspecified)
→ 103	-16	nt	nt
- O=C(O)CC1CCCc2ccccc2C1O (stereo unspecified)
→ 95	-28	nt	nt
- COc1cccc(-c2nn(C)c3sc(C(=O)N4CCCc5ccccc54)cc23)c1
→ 105	nt	91	55
- O=C(Nc1ccc(-c2cn3ccsc3n2)cc1)C1CCCC1
→ nt	3	86	98
- COc1ccc(OC)c(C2C(C(=O)Nc3ccccn3)=C(C)NC3=C2C(=O)CCC3)c1 (stereo unspecified)
→ 103	nt	103	79
- CN(Cc1cn(-c2ccccc2)nc1-c1ccc(F)cc1)C(=O)CCC(=O)O
→ nt	-40	70	82
- CCCCn1c(-c2ccc(N)cc2)nc2ccccc21
→ nt	9	58	104
- Cc1[nH]c(C)c(S(=O)(=O)N2CCC(C(=O)N3CCN(C4CCCCC4)CC3)CC2)c1C(=O)N1CCCC1
→ 102	-4	nt	nt
- Cc1nn(-c2cccc(Cl)c2)nc1C(=O)N1CCN(C(=O)C2CC2)CC1
→ nt	-25	88	91
- O=C(CSc1nnc(Cc2ccccc2)o1)NCc1ccco1
→ nt	-2	101	88
- CCOC(=O)c1ccc2[nH]cc(C(=O)OCC)c(=O)c2c1
→ 103	-14	90	85
- Cc1ccc(C(=O)c2cnc3cc4c(cc3c2N2CCCCC2)OCO4)cc1
→ 103	-35	65	59
- O=C(Nc1cc(C(F)(F)F)ccc1N1CCc2ccccc2C1)c1ccccc1
→ 108	-4	121	95
- Cc1ccc(NS(=O)(=O)c2ccc3[nH]c4c(c3c2)CCCCCC4)cc1
→ 104	nt	82	79
- Cc1cc(/C=C2\CCC(C3CCCC3)C2=O)c(C)n1-c1ccccc1 (stereo unspecified)
→ 109	nt	114	91
- NC(Cc1ccccc1F)C(=O)O (stereo unspecified)
→ nt	-10	95	86
- CC(C)(C)NC(=O)C1=CC=CN2CCS(=O)(=O)N=C12
→ nt	-31	76	91
- Fc1ccc(Cn2cccc2C2=NC(c3ccccc3)CO2)cc1 (stereo unspecified)
→ 102	nt	86	83
- N#C/C(=C\c1ccsc1)S(=O)(=O)c1ccc(C(F)(F)F)cn1
→ 107	-42	100	88
- O=C(Nc1nnc(Cc2ccc(Cl)cc2)s1)C1c2ccccc2Oc2ccccc21
→ 104	3	nt	nt
- CCOC(=O)c1cnc(SC(C)C(=O)Nc2c(C)cc(C)cc2C)nc1N (stereo unspecified)
→ 106	-6	nt	nt
- N=c1nc(-c2ccccc2)ccn1O
→ 104	nt	79	90
- O=C(CN1C(=O)C2CC=CCC2C1=O)Nc1ccccc1C(=O)Nc1ccccc1 (stereo unspecified)
→ nt	-4	107	96
- O=C(NCCCN1CCN(c2ccccc2F)CC1)c1nnc(Cc2ccc(Cl)cc2Cl)o1
→ 103	-6	119	88
- CC(=O)N1CCN(C(=O)C2C3CC4CC(C3)CC2C4)CC1 (stereo unspecified)
→ nt	-12	87	95
- COC(=O)Cc1coc2cc(C)c(Cl)cc12
→ 104	4	114	114
- CCOC(=O)N1CCc2c(sc(NCc3ccc(N(C)C)cc3)c2C(=O)Nc2ccccc2OCC)C1
→ 104	nt	86	88
- NNC(=O)c1csc(COc2ccccc2Cl)n1
→ 103	-15	97	79
- O=C(O)C1=CSCCO1
→ 106	-19	94	91
- O=C(NC1CCCCC1)C1CCCN(S(=O)(=O)c2c[nH]c(C(=O)N3CCCC3)c2)C1 (stereo unspecified)
→ 105	-13	nt	nt
- O=C1Nc2ccccc2/C1=C\c1cn(CC(=O)N2CCCC2)c2ccccc12
→ 119	nt	91	96
- Cc1cc(C)nc(-n2ncc3c2CCCC3=O)n1
→ 99	-8	106	89
- CCOC(=O)C1=C(C)N=c2s/c(=C/c3ccccc3OC)c(=O)n2C1c1ccc(OC(C)=O)c(OC)c1 (stereo unspecified)
→ 99	-5	nt	nt
- O=C(NNc1c(Cl)cc(Cl)cc1Cl)c1ccc(=O)[nH]n1
→ nt	-7	105	97
- CCCCOc1ccc(-c2cc3c(N4CCN(CC)CC4)nccn3n2)cc1
→ 107	-3	nt	nt
- COC(=O)CCc1nc2cc(Cl)ccc2n(Cc2ccccc2)c1=O
→ nt	-6	99	97
- CCc1ccc(N2CCC(C(=O)NC3CCCC3)C2=O)cc1 (stereo unspecified)
→ 105	-33	nt	nt
- COc1ccc(Cl)cc1NC(=O)C1CCN(S(=O)(=O)c2cc(-c3noc(C)n3)ccc2C)CC1
→ 98	-21	nt	nt

# (next part)
# Fields: GIV Gai3 FP	HCMV NEC inh	Sa growth inh	Sa growth inh second temp
- CC1(C)CC(=O)C2=C(C1)N(CC1CCCO1)C(=O)C2(NC(=O)CCc1ccccc1)C(F)(F)F (stereo unspecified)
→ 97	-26	nt	nt
- O=C(c1ccco1)N1CCN(C(=O)C2CCCN(c3nnc(-n4cccc4)s3)C2)CC1 (stereo unspecified)
→ 104	-12	117	84
- CC(C)NC(=O)NC1C2CC3CC(C2)CC1C3 (stereo unspecified)
→ 103	-15	90	88
- CCOC(=O)CSc1nc2c(sc3ccccc32)c(=O)n1CCCC(=O)NC1CCCC1
→ 102	2	104	89
- Cc1cc(OCC(=O)NC(C)(C)C)cc(C)c1Cl
→ 106	-1	108	110
- Cc1ccc(CNC(=O)c2nc(-c3ccc(Cl)cc3)n3c2CCCCC3)cc1
→ 106	nt	99	93
- COC(=O)/C=C1\NC(=O)CS1
→ nt	-10	92	94
- COc1cccc(NS(=O)(=O)c2ccc3[nH]cc(C(=O)NCCc4ccc(C)cc4)c(=O)c3c2)c1
→ 105	nt	105	86
- CC(C)COc1ccc(C(=O)N(Cc2cccc(F)c2)C2CCS(=O)(=O)C2)cc1 (stereo unspecified)
→ 100	-17	95	85
- CC(=O)O[C@H]1C(=O)[C@@]2(C)C([C@H](OC(=O)c3ccccc3)[C@]3(O)C[C@H](OC(=O)[C@H](O)[C@@H](NC(=O)c4ccccc4)c4ccccc4)C(C)=C1C3(C)C)[C@]1(OC(C)=O)CO[C@@H]1C[C@@H]2O (stereo partly specified)
→ nt	-45&-9	93	84
- N#CCN(CC#N)C(=O)c1cc(-c2ccccc2)nc2ccccc12
→ 106	-10	110	86
- O=C(c1ccc2c(c1)N(Cc1ccc(Cl)cc1)C(=O)c1ccccc1S2=O)N1CCN(c2ccccc2F)CC1 (stereo unspecified)
→ 102	-32	91	92
- CCOc1ccc(CCn2c3c(c(=O)[nH]c2=O)C(NC(=O)c2cccc(F)c2)(C(F)(F)F)C(=O)N3)cc1OCC (stereo unspecified)
→ 103	2	105	98
- CC(C(=O)NCCCN1CCOCC1)N1C(=O)CCCc2ccccc21 (stereo unspecified)
→ 109	-16	nt	nt
- CCc1nn(CC(=O)NCCCc2ccccc2)c(=O)c2cc3c(OC)cccc3n12
→ 98	-6	87	92
- CS(=O)(=NC(=O)Nc1ccccc1)c1cccs1 (stereo unspecified)
→ 104	-20	100	90
- Cc1onc(-c2ccccc2)c1-c1ccnn1S(=O)(=O)c1ccc(Cl)cc1
→ 108	nt	115	87
- Cc1nn(C(C)C(=O)NC(C)C)c(=O)c2cc3sccc3n12 (stereo unspecified)
→ 107	-1	127	95
- CS(=O)(=O)n1cc(C(F)(F)F)ccc1=O
→ nt	-15	90	81
- Cc1nnc(-c2ccc(S(=O)(=O)NC3CCCC3)s2)o1
→ 110	-26	nt	nt

# (cont.)
Structure | GIV Gai3 FP | HCMV NEC inh | Sa growth inh | Sa growth inh second temp
Cn1c(-c2ccc3ccccc3n2)[n+](C)c2ccccc21 | 105 | nt | 115 | 84
Cc1cc(-c2nnnn2-c2cc(Cl)cc(Cl)c2)no1 | 105 | 3 | 95 | 105
O=c1[nH]c2ccccc2c(=O)n1/N=C/c1cc(Cl)cc(Cl)c1O | nt | -5 | 116 | 92
COc1cc(C(C#N)N2N=C(c3ccccc3)CC2c2ccccc2)ccc1O (stereo unspecified) | 106 | -20 | nt | nt
COc1ccc(C2=NN(CC(=O)NCC(OC)OC)C(=O)CC2)cc1 | 107 | -24 | 99 | 91
COC(=O)C1C(O)=C(C=Nc2ccccc2)C(=O)CC1(C)C (stereo unspecified) | 105 | 21 | 94 | 81
O=c1cc(CNc2cccc(F)c2)nc2ccc(Br)cn12 | nt | -90 | 63 | 83
CCn1c(=O)[nH]c2cc(-c3noc(-c4cnccn4)n3)ccc21 | 107 | -51 | nt | nt
CCOC(=O)C1=C(C)N=c2s/c(=C/c3ccc(Br)s3)c(=O)n2C1c1cccs1 (stereo unspecified) | 101 | -2 | nt | nt
O=C(Nc1noc2ccccc12)c1c(F)cccc1F | 103&98 | -13&-12 | 109 | 77
CCOc1ccc(S(=O)(=O)N2CCN=C2c2ccccc2)cc1 | 103 | -7 | 106 | 83
CC(=O)c1ccc(NC(=O)CSc2nnc3ccc(-c4ccc(F)cc4)nn23)cc1 | 94 | nt | 134 | 80
CCc1ccc(C2CC(=O)Nc3c2c(=O)nc2c(C)cccn32)cc1 (stereo unspecified) | 105 | nt | 103 | 90
Cc1nnc(SCC(=O)N2CCC(C)CC2)c2nn(-c3ccccc3)c(C)c12 | 107 | -38 | 100 | 93
CCCn1c(=O)c2ccccc2n2c(SCC(=O)NC(=O)NC)nnc12 | nt | -27 | 84 | 96
O=C(NC1CC1)c1c(Cl)cccc1Cl | 106 | -3 | 108 | 96
O=S(=O)(c1ccc(Oc2ccc(-c3nnco3)cc2)nc1)N1CCC(Cc2ccccc2)CC1 | nt | -9 | 97 | 102
CCC1CN(C(=O)Nc2ccc(OC)cc2)c2ccccc2S1 (stereo unspecified) | 106 | -18 | 112 | 94
COCCNC(=O)Cn1c(=O)n(CCCCCC(=O)Nc2ccccc2)c(=O)c2sccc21 | 103 | -6 | 101 | 85
Cc1cccc(OC(C)c2nc3ccccc3[nH]2)c1 (stereo unspecified) | 104 | 11 | 108 | 101
Cc1cccn2c(=O)c(/C=C(\C#N)C(=O)NCCc3ccccc3)c(NCCOCCO)nc12 | 119 | -34 | 103 | 103
O=C(NCC12CC3CC(CC(C3)C1)C2)c1nc2ncccn2n1 | nt | 7 | 96 | 90
CCc1ccc(NS(=O)(=O)c2ccc(-n3cccn3)cc2)cc1 | 109 | -17 | 101 | 99
CCN(CC)CCCNC(=O)CCC(=O)N1Cc2ccccc2Oc2ncccc21 | 104 | -1 | nt | nt
CCN(CC)CCn1c(NCc2ccccc2Cl)nc2ccccc21 | 99 | -18 | nt | nt
Cc1ccc(C(C(=O)NCc2ccccc2)N(C(=O)c2snc(C(N)=O)c2N)c2ccc3c(c2)OCCO3)o1 (stereo unspecified) | 101 | -31 | 109 | 109
